rRNA inh HTS: selective bacterial rRNA inhibition in E. coli | 350,000 tested, 1.6% active | E. coli WT GFP vs humanized-ribosome RFP mutants, fluorescence, 24 h; stronger effect = lower value; DMSO median 0, no signal -100 | GFP signal change (wild-type ribosome), % (concentration not given with the values);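 active = significant combined selectivity score with lowered wild-type GFP, culture density cut under 30%, mutant RFP and density less affected; inactive = any of these conditions unmet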; also: one replicate is shown; some compounds called inactive have numbers as strong as hits
ALR H2O2 inh: human ALR oxidase inhibition via reduced H2O2. P55789. purified ALR, DTT oxidation, H2O2 HRP-luminol luminescence. inhibition, % (test concentration not listed). 290,000 tested, 3.8% active;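 active = mean and each replicate at 75% or more; inconclusive = only one of the two met; inactive = neither met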;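 also: stock transfer was 7.5 nL into about 7.5 µL; 0% = neutral wells and 100% = wells with inactivated enzyme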
FGF22 binding: shifts melting point of recombinant human FGF22 | Q9HCT0 | recombinant FGF22 thermal shift, SYPRO orange fluorescence; percent of sucrose octasulfate shift, DMSO zero | calls only at 9.99 µM | 340,000 tested, 1.5% active | AID 651658;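 active = melting point raised past a set limit in the mean and every replicate; inconclusive = no clear call; three in four hits are not shown here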
Target sequence (Q9HCT0 whole entry, looked up): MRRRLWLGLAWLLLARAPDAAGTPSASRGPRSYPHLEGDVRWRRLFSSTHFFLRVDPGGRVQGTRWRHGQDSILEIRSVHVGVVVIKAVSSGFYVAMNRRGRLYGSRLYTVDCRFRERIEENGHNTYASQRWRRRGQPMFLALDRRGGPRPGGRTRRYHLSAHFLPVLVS
HNF4A DNA FP: change in binding of human HNF4 alpha to DNA; HNF4a-FITC DNA binding, fluorescence polarization, 1 h; 360,000 tested, 0.3% active; P41235; activity change, % at 10 µM; in the data active = activity change above about 30%, passing the limit was not always enough;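 also: controls were the assay level and a saturating level of protein; the project sought stronger binding though the title names inhibitors; some compounds called inactive have numbers as strong as hits; positive values seem to mean higher polarization but the record does not say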
Target sequence (P41235 whole entry, looked up): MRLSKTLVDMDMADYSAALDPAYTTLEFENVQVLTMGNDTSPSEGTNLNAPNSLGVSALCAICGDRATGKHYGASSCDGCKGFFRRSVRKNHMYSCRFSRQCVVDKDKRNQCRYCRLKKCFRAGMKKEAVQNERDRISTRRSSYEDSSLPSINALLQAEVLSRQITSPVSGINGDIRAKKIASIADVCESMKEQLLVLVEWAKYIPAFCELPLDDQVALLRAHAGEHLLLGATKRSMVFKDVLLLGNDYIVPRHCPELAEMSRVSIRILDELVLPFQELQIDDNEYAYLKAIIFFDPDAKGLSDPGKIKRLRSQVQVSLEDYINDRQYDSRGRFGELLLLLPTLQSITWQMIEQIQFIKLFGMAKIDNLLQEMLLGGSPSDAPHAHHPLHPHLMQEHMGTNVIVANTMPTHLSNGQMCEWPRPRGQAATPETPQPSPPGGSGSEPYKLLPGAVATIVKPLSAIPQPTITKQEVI
Ecoli growth: blocks Escherichia coli growth; OD600, 23 h; stronger effect = lower value; OD600 absorbance (concentration not given with the values); 330,000 tested, 0.21% active;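 active = OD600 absorbance below the run mean of sample wells minus 3.6 SD, in any replicate, cut at about 0.56 in these data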;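 also: stock transfer was 300 nL into about 60 µL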
Beta2AR agonist: activates human beta-2 adrenergic receptor causing internalization; P07550; Am2.2-beta2AR cells, FAP receptor internalization, flow cytometry; reference of the scale not given here; response, % (test concentration not listed); 340,000 tested, 0.43% active; AID 504454;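 active = response above a set limit, near 3 SD of response in nonfluorescent compounds, cut at about 42% in these data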;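 also: stock transfer was 100 nL into about 11 µL; a reference agonist was the positive control; negative values mostly stem from fluorescent compounds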
Target sequence (P07550 whole entry, looked up): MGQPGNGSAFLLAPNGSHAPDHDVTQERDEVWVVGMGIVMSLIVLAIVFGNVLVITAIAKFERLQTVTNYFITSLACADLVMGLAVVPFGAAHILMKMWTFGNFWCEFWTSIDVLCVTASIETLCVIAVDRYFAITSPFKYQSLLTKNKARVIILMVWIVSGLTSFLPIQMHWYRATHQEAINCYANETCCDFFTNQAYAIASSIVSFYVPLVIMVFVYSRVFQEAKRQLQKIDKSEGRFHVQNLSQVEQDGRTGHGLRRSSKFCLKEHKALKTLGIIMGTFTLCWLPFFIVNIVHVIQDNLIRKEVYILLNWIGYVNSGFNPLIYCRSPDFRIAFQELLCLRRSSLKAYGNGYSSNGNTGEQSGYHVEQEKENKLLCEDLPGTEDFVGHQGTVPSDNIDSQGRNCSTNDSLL
UCH37 inh: human UCH37 deubiquitinating enzyme inhibition; 330,000 tested, 0.33% active; Q9Y5K5; purified proteasome/UCH37, Ub-AMC cleavage fluorescence; AID 588478; inhibition, % (concentration not given with the values);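 active = mean of two replicates above 20%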;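 also: 0% = compound-free wells with enzyme and 100% = wells lacking proteasome; stock transfer was 100 nL into about 20 µL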
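System: Proteasome-associated human UCH37 deubiquitinase; Input: 0.15 nM proteasome in added enzyme buffer; Also added: Ub-AMC substrate from 1 µM stock; Incubation: 30 min compound-proteasome preincubation then 25 min substrate reaction, room temperature; Detection: fluorescence, ex 355 nm, em 460 nm; Read-out: % inhibition of Ub-AMC cleavage fluorescence; Benchmarks: no-proteasome and no-compound wells.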
rRNA inh HTS OD600: recorded beside rRNA inh HTS, whose call it bears; OD600 change, %; measured here: OD600 growth;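 optical density of the mix in the first replicate; 0 = DMSO median and -100 = no signal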
rRNA inh HTS RFP: further read-out of rRNA inh HTS, marked with its call; RFP signal change, %; measured here: RFP humanized mutant strains;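 first replicate; 0 = DMSO median and -100 = no signal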
Starred values were filed as active, the others as inactive; i = inactive; ? = inconclusive; / = no result given. Only part of the results is shown; rates above refer to the full screens.

SMILES | rRNA inh HTS | rRNA inh HTS OD600 | rRNA inh HTS RFP | ALR H2O2 inh | FGF22 binding | HNF4A DNA FP | Ecoli growth | Beta2AR agonist | UCH37 inh
Cc1ccc2nc3n(c(=O)c2c1)-c1cc(Cl)ccc1C(=O)NC3Cc1ccc(O)cc1 (stereo unspecified) | -9 | -11 | -21 | -3 | i | / | / | / | /
CCN(C(=O)COC(=O)c1[nH]c(C)c(C(C)=O)c1C)C1CCS(=O)(=O)C1 (stereo unspecified) | / | / | / | -13 | / | 0.5 | 0.71 | 11 | 2.8
O=C(O)CCc1ccc(-c2cccs2)o1 | / | / | / | 19 | / | -4.7 | 0.72 | 2 | 0.8
COc1ccccc1C(CNC(=O)c1cccc(S(=O)(=O)Nc2ccc(C)cc2)c1)N(C)C (stereo unspecified) | 1 | -5 | 5.8 | -3 | i | 6.0 | 0.68 | 2 | 1.6
O=C1CC(N2CCCc3ccccc32)C(=O)N1c1ccccc1 (stereo unspecified) | / | / | / | 61 | / | -0.9 | 0.7 | 0 | 4.8
COc1cc(/C=C/C(=O)N2C(=O)c3cccc(N)c3C2=O)cc(OC)c1OC | 8 | 2 | 1.2 | 10 | i | -5.0 | / | 37 | -11
COc1ccc(/C=C(/C(=O)c2cccs2)N2C=CC=CC2=C(C#N)C#N)cc1 | 9 | -8 | 2.0 | / | i | -0.2 | 0.68 | 77* | -6.7
CSc1nccc(NC(=O)c2ccc(C(C)(C)C)cc2)n1 | 0 | -27 | 7.3 | -3 | i | 5.2 | 0.66 | -3 | 4.8
CC1(C)c2[nH]c3ccccc3c2C[C@H]2C(=O)N(CCCCCO)CC(=O)N21 | -1 | 3 | -1.6 | -6 | i | 2.2 | 0.67 | 3 | 0.2
COc1ccc(C(=O)OCC(=O)NCC2CCCO2)c(F)c1 (stereo unspecified) | / | / | / | -4 | i | -0.2 | 0.71 | -6 | 2.5
CCc1cc(C(=O)NCC(c2ccc(OC)cc2)N2CCOCC2)sc1C (stereo unspecified) | 1 | 1 | -0.4 | / | i | 2.4 | 0.68 | 38 | -0.6
OC(Cn1cnnc1)c1ccccc1 (stereo unspecified) | 13 | 12 | -2.0 | / | i | -1.4 | / | -3 | /
Clc1cccc(OCc2nnc(-c3ccccc3Br)o2)c1 | -16 | -25 | -0.7 | 0 | i | 4.4 | 0.66 | 7 | 1.1
CCCOc1ccc(NC(=O)CCC(=O)NC(C)c2ccccc2)cc1 (stereo unspecified) | 8 | 15 | -0.9 | 1 | i | -3.5 | 0.73 | -7 | 0.8
CC1CCN(C(=O)C2CCN(CC(C)c3ccccc3)CC2)CC1 (stereo unspecified) | / | / | / | -39 | / | -0.3 | 0.7 | 4 | 5.3
O=c1c2cc(Cl)ccc2nc(-c2ccc([N+](=O)[O-])cc2)n1O | 2 | -2 | -4.2 | -7 | i | -2.1 | 0.7 | 11 | 2.8
COCCNC(=O)COc1coc(CN2CCN(Cc3ccccc3)CC2)cc1=O | 7 | 2 | -1.4 | -6 | i | 1.5 | 0.67 | 1 | 4.8
COc1ccc(N2CC(C(=O)Nc3nccs3)CC2=O)cc1 (stereo unspecified) | / | / | / | -3 | / | -2.9 | 0.72 | -4 | 4.5
COC(=O)/C=c1/sc2nc3ccccc3n2c1=O | / | / | / | -5 | / | -0.1 | / | 2 | /
CCOCCN(C(=O)COC)c1cccc(OC)c1 | / | / | / | -1 | / | -3.1 | 0.72 | 5 | -1.6
Cc1cc(C)c(-c2cc(NC(=O)COC(=O)c3ccc(CO)cc3)n(-c3ccccc3)n2)cc1C | / | / | / | / | / | 5.0 | 0.71 | -12 | 2.8
CC1CCN(C(=O)COC(=O)C2CCN(S(=O)(=O)c3ccc4c(c3)OCCO4)CC2)CC1 | 2 | 0 | 0.8 | -6 | i | -0.2 | 0.69 | 6 | 3.9
COc1ccc(C2C(C#N)=C(N)Oc3c2sc2nc(C)cc(C)c32)cc1 (stereo unspecified) | / | / | / | 6 | / | 9.6 | / | 80* | /
CCCN(CCC)C(C)C(=O)NCC1(c2ccccc2)CCCC1 (stereo unspecified) | -59 | -77 | -17 | -23 | i | -3.4 | 0.69 | 3 | 4.1
O=C(COC(=O)C1CCN(c2ccc(C(F)(F)F)cn2)CC1)NCc1ccc(F)cc1 | -38 | -54 | -8.8 | -2 | i | -0.8 | 0.7 | 2 | 0.2
COc1ccc(C/C(C)=N\NC(=O)c2c[nH]c3ccccc23)cc1OC | -1 | -6 | -2.4 | 49 | i | -1.9 | / | 5 | /
COc1ccccc1CNC(=O)[C@@H]1CCCN1C(=O)[C@@H]1Cc2ccccc2CN1C(=O)OC(C)(C)C | -3 | -16 | -2.4 | 2 | i | 0.6 | 0.66 | -14 | 2.1
CC1=NN(C(N)=S)C(=O)C1N=Nc1c(C)cc(C)cc1C (stereo unspecified) | / | / | / | -5 | / | 3.5 | 0.7 | -33 | 8.7
COc1ccc(-n2c(SCC(N)=O)nnc2-c2cccnc2)cc1 | / | / | / | / | / | -0.8 | 0.67 | 2 | 1.3
Cn1c(=O)oc2cc(S(=O)(=O)NCCC(=O)N3CCc4ccccc4C3)ccc21 | -16 | -22 | 26 | -6 | i | -3.5 | 0.74 | -2 | 2.1
C(=C\c1nc(N2CCCC2)c2ccccc2n1)/c1ccccc1 | / | / | / | 10 | / | 0.8 | 0.58 | 32 | -4.4
CC1CC(C)CN(C(=O)CCCn2c(=O)c3cccn3c3cccnc32)C1 (stereo unspecified) | -19 | -24 | -3.1 | -15 | i | -4.0 | 0.66 | -23 | -1.5
O=C(CCCn1cncn1)N1CCCC(Nc2ccc(F)cc2)C1 (stereo unspecified) | 25 | 21 | 3.5 | 98* | i | 1.1 | 0.73 | 6 | 8.1
Cc1ccc(-c2csc(/C(C#N)=C/Nc3ccccc3SC(F)(F)F)n2)c(C)c1 | 4 | 2 | -1.8 | -4 | i | -5.0 | 0.7 | 6 | -3.5
Cc1ccccc1-n1cnc2cc(NCc3cccs3)ccc21 | / | / | / | ? | / | 1.0 | 0.67 | -20 | -2.6
COc1ccc(NC(=O)c2ccc(Cl)nc2)cc1S(=O)(=O)N1CCCCC1 | / | / | / | / | / | -3.9 | 0.69 | -11 | 4.6
COc1cc(CN2C(=O)C(C)ON=C2c2ncccc2C)cc(OC)c1 (stereo unspecified) | -7 | -10 | 0.4 | / | i | 4.6 | / | / | /
COc1ccc(N2CCN(C(=O)CC3NC4CCCCC4NC3=O)CC2)cc1 (stereo unspecified) | / | / | / | 40 | / | 2.8 | 0.73 | -4 | 3.4
COc1ccc(/C=C2\N=C(SC)NC2=O)cc1 | / | / | / | / | / | -1.4 | / | 14 | 3.1
Cc1ccc(NC(=O)/C(=C/c2ccco2)c2ccccc2)c(C)c1 | / | / | / | -2 | / | -4.2 | 0.73 | -8 | 1.8

Reprinted from the part before: four entries; new compounds follow.
SMILES | rRNA inh HTS | rRNA inh HTS OD600 | rRNA inh HTS RFP | ALR H2O2 inh | FGF22 binding | HNF4A DNA FP | Ecoli growth | Beta2AR agonist | UCH37 inh
COc1cc(CN2C(=O)C(C)ON=C2c2ncccc2C)cc(OC)c1 (stereo unspecified) | -7 | -10 | 0.4 | / | i | 4.6 | / | / | /
COc1ccc(N2CCN(C(=O)CC3NC4CCCCC4NC3=O)CC2)cc1 (stereo unspecified) | / | / | / | 40 | / | 2.8 | 0.73 | -4 | 3.4
COc1ccc(/C=C2\N=C(SC)NC2=O)cc1 | / | / | / | / | / | -1.4 | / | 14 | 3.1
Cc1ccc(NC(=O)/C(=C/c2ccco2)c2ccccc2)c(C)c1 | / | / | / | -2 | / | -4.2 | 0.73 | -8 | 1.8
Cc1ccc2[nH]c(C(=O)N3CCCCC3)cc2c1 | 2 | 1 | -4.8 | -10 | i | 0.2 | 0.66 | -7 | 6.6
CSCCC(c1nnnn1C1CCCC1)N1CCN(C/C=C/c2ccccc2)CC1 (stereo unspecified) | -31 | -66 | 11 | / | i | -0.4 | / | / | /
CCOc1ccc(NC(=O)CCC(=O)NNC(=O)c2ccc(Br)o2)cc1 | 4 | 3 | -0.9 | -7 | i | 0.8 | 0.66 | 13 | 0.8
Cc1ccc(S(=O)(=O)N2C[C@@H](C)[C@]3(C2)[C@H](O)[C@H](OC(=O)NCc2ccccc2)C[C@H]2C(=O)N(c4ccccc4)C(=O)[C@H]23)cc1 | 4 | 1 | 0.6 | / | i | -4.0 | / | / | /
CN(Cc1ccccc1)C(=O)c1[nH]cnc1C(=O)NCCCCCNC(=O)OC(C)(C)C | -8 | -15 | 12 | 1 | i | 1.3 | 0.71 | -6 | 18
O=C(Nc1nc2ccc([N+](=O)[O-])cc2s1)c1c(F)cccc1F | 8 | 7 | -1.3 | / | i | 3.7 | 0.68 | 20 | 4.8
CC1CCN(C(=O)c2[nH]cnc2C(=O)NCC(=O)OCc2ccccc2)CC1 | 5 | 5 | -7.7 | 0 | i | 4.9 | / | -8 | /
Cc1cccc(NC(=O)C(Cc2ccccc2)c2nn[nH]n2)c1C (stereo unspecified) | 3 | 6 | 0.2 | -4 | i | 1.4 | 0.69 | 3 | -0.6
COc1ccc(F)cc1CN1CCN(C(=O)CCC(=O)Nc2nnc(C3CCCCC3)s2)CC1 | -4 | -31 | 6.0 | 6 | i | -1.4 | 0.65 | -4 | 5.2
CS(=O)(=O)N1CCCCC1c1cc(C(=O)Nc2cccc3c2CCCC3)no1 (stereo unspecified) | -1 | -9 | 1.5 | / | i | 2.0 | / | / | /
O=c1[nH][nH]c(C(F)(F)F)c1C=NCc1ccc(Cl)cc1 | / | / | / | -2 | / | 1.6 | 0.71 | 5 | 6.7
O=C(O)C1SCCN1S(=O)(=O)c1ccc(N=NN2CCOCC2)cc1 (stereo unspecified) | 9 | 1 | -3.1 | -9 | i | -0.6 | 0.74 | 5 | 13
COCCCC1CCN(Cc2nc(Cc3ccccc3Cl)no2)CC1 | 1 | -4 | 1.6 | -4 | i | -2.3 | 0.67 | -1 | 2.0
FC(F)(F)c1ccc(/C=N/N2CCN(Cc3ccccc3)CC2)cc1 | / | / | / | 1 | / | 2.6 | / | -1 | /
CC1(C(=O)NS(=O)(=O)c2cccc(C#N)c2)CCN1C(=O)Cc1ccccc1Cl (stereo unspecified) | 8 | 22 | 1.8 | / | i | 4.9 | / | / | /
O=c1c2[nH]c3ccccc3c2ncn1CCC1=CCCCC1 | / | / | / | -22 | / | -2.1 | 0.78 | -3 | 1.0
COCCCNC(=O)c1cn(Cc2c(F)cccc2Cl)nn1 | / | / | / | 15 | / | -2.7 | 0.75 | -3 | 2.3
CCN1C(=O)/C(=C/c2cn(-c3ccccc3)nc2-c2cccnc2)SC1=S | 8 | 18 | 2.1 | / | i | 40* | 0.72 | -10 | 4.6
COc1ccc2c(CN3CCN(c4ccc(Cl)c(Cl)c4)CC3)cc(=O)oc2c1 | 0 | -1 | 5.1 | / | i | 2.3 | / | / | /
Cc1c(CC(=O)N2CCC(C(N)=O)CC2)c(=O)oc2cc3c(cc12)CCC1(CCCCC1)O3 | / | / | / | -64 | i | 3.4 | 0.72 | 6 | -421
COc1ccc(OCCCC(=O)Nc2ncn[nH]2)cc1 | 7 | 9 | 1.0 | -25 | i | 1.9 | 0.68 | 6 | 0.2
COc1ccc(C(=O)N2CCc3cc4c(cc3C2C)OCCCO4)cc1 (stereo unspecified) | / | / | / | -1 | i | 3.8 | 0.79 | 6 | -2.2
